Source: PubChem (National Center for Advancing Translational Sciences (NCATS))
Rango complex inh = Rango-importin beta binding inhibition | AID 540263 | actives 0.031% (n = 340,000) | Rango CFP/YFP FRET sensor + importin beta, 45 min | Potency, µM (top dose mostly 92.2 µM), for inactives: at the top dose inhibition of complex formation; active = rising FRET ratio curve, often small or poorly fitted; inconclusive = mostly compound fluorescence or quenching in the first reads; inactive = flat curves in all reads;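 note: potency is the fitted concentration of half-maximal effect; 0% = DMSO wells and 100% = buffer wells lacking importin beta; nearly all actives have a fitted effect of over 15% in size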
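Inhibition scored from the CFP 486 nm/YFP 530 nm FRET ratio 45 min after adding 0.125 microM importin beta to 50 nM Rango biosensor preincubated 5 min with compound (room temperature, PBS with DTT, Tween-20, BSA). No-importin wells as positive control.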
miR-21 FLuc = raises the signal of a miR-21 reporter. HeLa miR-21 FLuc reporter, luciferase, 48 h. Potency, µM (highest dose often 38.3 µM), for the others: at the top dose reporter change, positive = more light. 340,000 tested, under 10 active. AID 2288; active = well fitted rising curve with a large enough effect; inconclusive = small, poorly fitted or top-dose-only effect; inactive = no such curve, though single readings can be large or run the other way;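 note: % of control where 0% means no effect; miR-21 action dims this reporter so a rising signal means less miR-21 action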
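HeLa cells endogenously expressing miR-21, stably carrying CMV-driven firefly luciferase with a downstream miR-21 binding site, 2000 cells/well. Titrations up to approximately 40 uM, 48 hours; luciferase luminescence read.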
GLA inh pH 4.5 = blocks human alpha-galactosidase A at pH 4.5; purified enzyme, 4-MU-alpha-Gal fluorescence, pH 4.5; activity change, negative = inhibition, % at 105 µM; 230,000 tested, under 10 active; AID 1467; inconclusive = small, poorly fitted or top-dose-only inhibition, or a rising curve; inactive = flat fitted curve, though single readings scatter; no compound was filed as active;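 note: 0% = full activity with enzyme and -100% = basal without enzyme; dose as in the result columns while the protocol names 77 µM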
Target sequence (P06280 whole entry, looked up): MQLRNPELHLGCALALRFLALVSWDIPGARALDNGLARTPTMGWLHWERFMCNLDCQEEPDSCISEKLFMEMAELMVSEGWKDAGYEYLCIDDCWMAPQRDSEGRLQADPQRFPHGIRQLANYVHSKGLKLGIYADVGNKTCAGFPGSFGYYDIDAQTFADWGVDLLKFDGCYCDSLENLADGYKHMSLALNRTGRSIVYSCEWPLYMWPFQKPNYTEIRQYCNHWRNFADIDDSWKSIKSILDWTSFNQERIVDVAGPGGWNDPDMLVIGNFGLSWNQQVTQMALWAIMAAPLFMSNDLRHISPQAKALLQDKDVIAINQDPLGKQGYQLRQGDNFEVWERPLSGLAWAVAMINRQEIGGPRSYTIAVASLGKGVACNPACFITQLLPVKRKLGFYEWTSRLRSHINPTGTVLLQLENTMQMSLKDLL
Rango release inh = inhibition of RanGTP-driven Rango-importin beta dissociation | Biochemical FRET Rango-importin beta, RanGTP-induced dissociation | actives 0.071% (n = 340,000) | AID 540253 | O95149+P62826 | Potency, µM (doses to about 46.1 µM), inactives show top-dose activity change, negative = inhibition; active means falling FRET ratio curve, often poorly fitted, with flat reads before Ran was added; inconclusive means other falling curves, or compound fluorescence or quenching; inactive means flat or rising ratio curve;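 note: potency is the fitted concentration of half-maximal effect; % of control where 0% means no effect; nearly all actives have a fitted effect of over 45% in size; -100% = wells without RanGTP and RCC1; the record marks most hits as doubtful in a second field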
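Compounds sat 5 min at room temperature with 0.1 uM Rango biosensor plus 0.25 uM importin beta, then FRET pre-read. RanGTP-RCC1 (0.6 uM Ran, 2mM GTP, 0.2 uM RCC1) added for 45 min, and the CFP/YFP post-read measured blocked complex dissociation.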
The depositor's hits bear a star; ? = inconclusive; · = not tested or not shown. An excerpt. The share of hits here may be higher or lower than overall.

#	SMILES	miR-21 FLuc	Rango complex inh
1	COc1ccc2cc([C@H](C)C(=O)OCc3cn(CC(=O)c4ccc(O)cc4)nn3)ccc2c1	·	1.1%
2	O=C(C1CC(c2ccccc2O)=NO1)N1CCCCC1 (centres undefined)	-44%	-0.7%
3	O=C(Nc1ccccc1F)c1ccn[nH]1	-44%	-2.0%
4	C=CCN(Cc1ccco1)S(=O)(=O)c1ccc(Cl)cc1	-1%	6.2%
5	COCC(=O)n1nc(-c2ccccc2)nc1NCc1cccs1	-60%	-0.2%
6	N#Cc1ccccc1NS(=O)(=O)c1cc2c3c(c1)CCN3C(=O)CC2	·	-2.6%
7	Clc1ccc(Cn2ncc3c(NCc4ccccc4)ncnc32)cc1	21%	2.3%
8	Cc1ccc(-c2noc(-c3ccoc3C)n2)cc1	-45%	1.0%
9	Cc1[nH]n(-c2ccc([N+](=O)[O-])cc2)c(=O)c1C=NCCN1CCN(C(=O)c2ccc(F)cc2)CC1	-2%	3.1%
10	COc1ccc(OC)c(CN2CCN(C(=O)CCC(=O)c3cccs3)CC2)c1	·	-1.1%
11	COC(=O)Nc1ccc(SCC(=O)c2cccc([N+](=O)[O-])c2)cc1	3%	-0.9%
12	COc1ccc(CCC(=O)OCC(=O)NC(=O)c2ccc(Cl)cc2)cc1	·	?

#	Rango release inh	GLA inh pH 4.5
1	6%	·
2	-10%	1
3	11%	-14
4	8%	·
5	2%	3
6	0%	·
7	5%	-5
8	-3%	8
9	8%	0
10	-14%	·
11	15%	·
12	-26%	·

One compound at a time, as listed above.
COc1ccc(OC)c(CN2CCN(C(=O)CCC(=O)c3cccs3)CC2)c1 is listed as miR-21 FLuc = ·; Rango complex inh = -1.1%; Rango release inh = -14%; GLA inh pH 4.5 = ·
Cc1[nH]n(-c2ccc([N+](=O)[O-])cc2)c(=O)c1C=NCCN1CCN(C(=O)c2ccc(F)cc2)CC1 is listed as miR-21 FLuc = -2%; Rango complex inh = 3.1%; Rango release inh = 8%; GLA inh pH 4.5 = 0

(continued)
#	SMILES	miR-21 FLuc	Rango complex inh
13	Cc1ccc(NC(=S)NC2CCN(Cc3ccccc3)CC2)c(C)c1	0%	0.1%
14	CC(C)c1ccc(NC2CCCN(C(=O)c3cnc4ccccn4c3=O)C2)cc1 (centres undefined)	0%	-2.6%
15	O=[N+]([O-])c1ccc(-c2cnc(NO)nc2)cc1	-46%	-1.8%
16	O=C(Nc1ccc(F)cc1F)N1CCCN(c2ccc(C(F)(F)F)cn2)CC1	28%	-1.9%
17	CCCOc1ccc(N2C(=O)CC(S/C(N)=N/N=C(\C)c3cccs3)C2=O)cc1 (centres undefined)	-5%	0.1%
18	Cc1ccc(S(=O)(=O)CCN2CCC(n3cccc3)CC2)cc1	-4%	4.7%
19	Cc1c(NC(=O)Nc2cccc(Cl)c2Cl)c(=O)n(-c2ccccc2)n1C	2%	2.5%
20	O=C(Cc1coc2cc(O)ccc12)NNC(=O)c1ccc(Br)s1	·	?
21	Fc1ccc(-c2csc3ncnc(Cl)c23)cc1	5%	0.6%
22	COc1cc(NC(=S)NCc2cccnc2)c(OC)cc1Cl	3%	0.9%
23	CN1CCN(C(=O)NC2CCCCC2)CC1	-5%	-1.4%
24	Nc1nonc1C(=O)NCCc1ccccc1	-30%	-3.0%

#	Rango release inh	GLA inh pH 4.5
13	-11%	-2
14	2%	·
15	10%	-1
16	1%	-6
17	0%	-2
18	11%	-4
19	15%	·
20	-22%	·
21	15%	6
22	22%	-2
23	-8%	-14
24	-8%	1

Continued:
#	SMILES	miR-21 FLuc	Rango complex inh
25	CN(Cc1cccc(F)c1)C(=O)Cc1ccc(S(=O)(=O)N2CCOCC2)s1	·	1.5%
26	COCCN(C(=O)Cc1cccs1)C(C(=O)NC1CCCC1)c1cc(OC)c(OC)c(OC)c1 (centres undefined)	-54%	5.4%
27	COc1cccc(NC(=O)C2=COCCO2)c1	·	1.1%
28	CS(=O)(=O)N1CCN(c2ccccc2NC(=O)c2ccc3c(c2)OCCO3)CC1	5%	-1.9%
29	O=C(OCC(=O)N1CCN(c2ccccc2)CC1)c1ccco1	8%	-2.1%
30	CC(C)(C)c1ccc(Cn2ccc(-c3ccc4c(c3)OCO4)n2)cc1	-30%	-4.3%
31	O=C1NC2(CCCCCC2)C(=O)N1Cc1ccccc1Cl	0%	-0.7%
32	CC(C)C1Oc2ccccc2N(CC(=O)N(Cc2ccccn2)C2CC2)C1=O (centres undefined)	-1%	-1.0%
33	O=C1CC(NS(=O)(=O)c2ccc([N+](=O)[O-])cc2)CN1c1ccc(Cl)cc1 (centres undefined)	·	0.2%
34	COC(=O)[C@@]1(Cc2ccc(F)cc2)[C@H]2c3cc(C(=O)N(C)C)n(Cc4ccc(OC(F)(F)F)cc4)c3C[C@H]2CN1C(=O)c1ccccc1	?	·
35	Cc1cccc(Cn2c(N3CCN(c4ccccc4)CC3)nc3c2c(=O)n(C)c(=O)n3C)c1	-3%	-6.6%
36	CCC(=O)Oc1ccc(C(=O)Nc2cccc(C(=O)c3ccccc3)c2)cc1	-5%	1.6%

#	Rango release inh	GLA inh pH 4.5
25	0%	·
26	-8%	-3
27	2%	·
28	3%	·
29	0%	2
30	14%	?
31	24%	·
32	10%	1
33	4%	·
34	·	?
35	17%	1
36	4%	1

Following part
#	SMILES	miR-21 FLuc	Rango complex inh
37	CCOC(=O)C1CCN(C(=O)c2ccc(N(C)S(=O)(=O)c3ccc(OC)cc3)cc2)CC1	1%	-3.6%
38	CCc1noc(C)c1C(=O)N1CCCC(N2CCN(c3cccc(Cl)c3)CC2)C1 (centres undefined)	2%	-2.8%
39	CCOC(=O)CC(=O)CSc1ccc2nnc(-c3ccc(C)cc3)n2n1	-10%	-4.6%
40	O=C(c1cc(-c2ccc(Cl)cc2)on1)N1CCCCCC1	-74%	-1.3%
41	COc1ccc(C)cc1NC(=O)CNC(=O)Cn1ccc2ccccc2c1=O	1%	-3.2%
42	O=C(CNC(=O)c1ccccc1F)c1ccc(Br)cc1	-66%	-4.1%
43	COCCC(=O)N1CCCC(C(=O)c2ccccc2SC)C1 (centres undefined)	·	-0.8%
44	Oc1ccccc1/C=N/NC(=S)NC1CC2C=CC1C2 (centres undefined)	0%	?
45	O=P(COc1ccccc1)(c1ccccc1)c1ccccc1	-11%	-1.0%
46	OC(CNCc1ccc2c(c1)OCO2)COc1ccccc1 (centres undefined)	-6%	-1.1%
47	CC(CN1CCOCC1)C(=O)O (centres undefined)	-11%	4.2%
48	Cc1ccc(CC(=O)Nc2nccs2)cc1	-8%	0.0%

#	Rango release inh	GLA inh pH 4.5
37	-8%	3
38	-1%	·
39	-19%	-10
40	1%	·
41	-13%	-7
42	-1%	·
43	1%	·
44	-19%	-24
45	-11%	7
46	-3%	6
47	15%	9
48	-7%	·

New compounds follow
#	SMILES	miR-21 FLuc	Rango complex inh
49	Cc1ccc(C)c(N(C(=O)c2csnn2)C(C(=O)NC2CCCCC2)c2ccncc2)c1 (centres undefined)	-4%	?
50	COc1ccc(C(=O)Nc2ccc([N+](=O)[O-])cn2)c(OC)c1	-58%	7.4%
51	Cc1ccc(CCNC(=O)C2CCC(=O)N(CC3CCCCC3)C2)cc1 (centres undefined)	0%	-1.0%
52	CCN1CCN(CCNC(=O)CCCCCn2c(=O)[nH]c3cc(C(=O)OC)ccc3c2=O)CC1	1%	-1.6%
53	Cc1cccc(CNC(=O)C2CCCN(c3nn4c(=O)cc(C)nc4s3)C2)c1 (centres undefined)	-5%	-3.8%
54	O=C(C[n+]1ccccn1)c1ccccc1	-12%	0.0%
55	CN(Cc1nc(-c2ccncc2)no1)S(=O)(=O)c1ccccc1	-1%	-0.2%
56	Cc1cc(=O)oc2cc(OCC(=O)OCC(=O)Nc3ccccc3F)ccc12	1%	-4.9%
57	CCCCC(=O)N1CCCC(c2nc3c(nnn3Cc3cc(C)ccc3C)c(=O)[nH]2)C1 (centres undefined)	-1%	0.6%
58	CCOc1ccc(NC(=O)CS(=O)(=O)c2cn(C)c3ccccc23)cc1	-9%	2.2%
59	Cc1ccc(SCc2c(C#N)c3ccccc3n2C)cc1	-27%	-0.2%
60	COc1ccc(-n2nc3c(c2NC(=O)c2ccc(Br)cc2)CS(=O)C3)cc1 (centres undefined)	0%	3.8%

#	Rango release inh	GLA inh pH 4.5
49	-3%	·
50	-12%	-11
51	4%	·
52	2%	26
53	-6%	·
54	0%	·
55	1%	11
56	-7%	11
57	1%	5
58	-8%	3
59	-5%	-3
60	-1%	7

New compounds follow
#	SMILES	miR-21 FLuc	Rango complex inh
61	Cn1cnnc1SCC(=O)Nc1cc(S(=O)(=O)N2CCCCC2)ccc1Cl	-5%	-0.3%
62	COc1cc(/C(C)=N/NC(=O)CSc2nc3ccccc3[nH]2)ccc1O	-11%	2.7%
63	COc1cc(OC)c(C2=NOC(C(=O)O)C2)cc1Cl (centres undefined)	-2%	-0.5%
64	O=C1C/C(=C\c2c(F)cccc2Cl)N2CCC1CC2	-4%	-0.9%
65	Cc1ccsc1/C=N\NC(=O)c1n[nH]c2c1CCC2	18%	0.1%
66	COc1cccc(COc2ccc(N(C)S(=O)(=O)c3ccccc3)cc2)c1	-2%	1.0%
67	O=C1/C(=C\c2ccccn2)SC(=S)N1c1ccc(S(=O)(=O)Nc2nccs2)cc1	-2%	-0.6%
68	Cc1ccccc1/C=N\NC(=O)c1csnn1	-17%	1.5%
69	Cc1c(C(=O)NCC(c2ccco2)N(C)C)oc2c(Cl)cccc12 (centres undefined)	·	5.1%
70	COc1ccc(C(=O)NOCc2ccccc2)cc1	·	-5.1%
71	Cc1ccc(C(=O)NCC(=O)OCC(=O)NC2CCS(=O)(=O)C2)cc1C (centres undefined)	1%	?
72	O=C(O)C1CCC(=O)N1C1c2ccccc2Oc2ccccc21 (centres undefined)	0%	4.4%

#	Rango release inh	GLA inh pH 4.5
61	11%	0
62	11%	-4
63	9%	7
64	-5%	3
65	10%	4
66	2%	·
67	11%	-3
68	2%	7
69	9%	·
70	-3%	·
71	-7%	-10
72	-16%	1

(listing goes on)
#	SMILES	miR-21 FLuc	Rango complex inh
73	Cc1ccc(C(=O)NC2CCCC2)s1	-27%	1.0%
74	CCCN(C(=O)CCNC(=O)Cn1cnc2ccccc2c1=O)c1cccc(Cl)c1	-3%	2.5%
75	O=c1cc(Cl)c(-c2ccccc2)nn1Cc1ccc(Cl)cc1	-1%	9.0%
76	O=c1c2ccccc2oc2cc(C#Cc3ccccn3)ccc12	·	-0.2%
77	CSc1ccc(S(=O)(=O)Nc2cccc(F)c2)cc1	5%	·
78	COc1ccc2sc(-c3ccc(SC)cc3)c(-c3ccc(O)cc3)c2c1	·	-0.1%
79	Cc1cccc(C(=O)NCC(=O)NCCSc2ccc(Br)cc2)c1	·	5.0%
80	COC(=O)c1c(C)cc(C)n2c1nc1ccccc12	-15%	-5.0%
81	COc1ccccc1/C=C/C(=O)OCC(=O)Nc1nnc(-c2ccccc2)o1	·	-0.3%
82	CC1=C(C(=O)OCCc2ccccc2)C(c2ccsc2)NC(=O)N1C (centres undefined)	3%	?
83	CCOc1ccc(-c2ccc(NS(=O)(=O)c3ccc([N+](=O)[O-])cc3)cc2)nn1	-3%	0.1%
84	O=C(Nc1ccccn1)C1CCN(S(=O)(=O)c2ccccc2)CC1	·	-1.7%
85	CCOC(=O)C1(CCOC)CCN(C(=O)c2ccc(CSC)o2)CC1	-12%	1.2%

#	Rango release inh	GLA inh pH 4.5
73	8%	·
74	12%	·
75	-14%	·
76	-3%	·
77	·	3
78	-7%	·
79	-2%	·
80	-12%	6
81	0%	·
82	2%	11
83	2%	·
84	1%	·
85	1%	·
